2A StopGo – High Throughput Screening for Foot and Mouth Disease Virus Antivirals; actives 1.2% (n = 410,000); Potency, µM (series often up to 57.9 µM), inactives show at the highest dose signal change, negative = less light; human cells with a luciferase reporter of 2A StopGo recoding; control for the full effect not named in the record; AID 1159524, 2015; active = well fitted falling curve with a large enough effect; inconclusive = small, poorly fitted or top-dose-only effect; inactive = no such curve, though single readings can be large or run the other way; tested in HEK293T cells; note: % is set by controls: 0 for no effect and ±100 for the full control effect; nearly all actives have a fitted effect of over 45% in size; luciferase light after 4 h
SARS PLP yeast – qHTS of Yeast-based Assay for SARS-CoV PLP | Potency, µM (doses to about 32.9 µM), without a hit: top-dose activity, positive = growth rescue | actives 0.19% (n = 330,000) | AID 485353, 2010 | S. cerevisiae expressing SARS-CoV PLpro, growth rescue; control for the full effect not named in the record; active means well fitted rising curve with a large enough effect; inconclusive means small, poorly fitted or top-dose-only effect; inactive means no such curve, though single readings can be large or run the other way; note: 0% is about no effect; nearly all actives have a fitted effect of over 55% in size; growth read by luminescence after 48 h
RE007 growth inh – qHTS Assay for Inhibitors of the HIV-1 protein Vpr; S. pombe RE007 Vpr strain, BacTiter-Glo ATP luminescence, 24 h; control for the full effect not named in the record; Potency, µM (series often up to 92.2 µM), without a hit: top-dose activity change, negative = less growth; actives 0.21% (n = 360,000); AID 651644, 2012; active = well fitted falling curve with a large enough effect; inconclusive = small, poorly fitted or top-dose-only effect; inactive = no such curve, though single readings can be large or run the other way;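 note: % is set by controls: 0 for no effect and ±100 for the full control effect; nearly all actives have a fitted effect of over 50% in size; the assay follows cell death caused by Vpr and the record does not say whether a fall means rescue or toxicity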
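Fission yeast strain RE007, carrying one chromosomally integrated HIV-1 vpr copy, was seeded at OD 0.01 in PMG+AL medium with 23 nL pinned compound. After 24 h at 30 °C and 99% humidity, viability was read by BacTiter-Glo luminescence.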
Active calls of the source: *; ? = inconclusive; ! = repeats disagree; [ ] = another dose, or the depositor's remark. Potency is the fitted concentration of half-maximal effect. Some of the compounds tested; the hit share may differ from the screen's.

SMILES	2A StopGo	SARS PLP yeast	RE007 growth inh
CCCCS(=O)CC(COC)OC(=O)c1ccccc1 (stereo not drawn)	?	-4%	7%
Cc1sc2ncnc(OCC(=O)N3CCN(C(=O)c4ccco4)CC3)c2c1C	-4%	0%	12%
CC(c1nnc(SCC(=O)c2c(N)n(C3CC3)c(=O)[nH]c2=O)n1-c1ccc(F)cc1)N(C)C (stereo not drawn)	-10%	-1%	5%
O=C(OCC(=O)N1CCCC1)c1c2c(nc3ccccc13)CCCCC2	-25%	-1%	1%
COc1cc(N/N=C(\C)c2ccc(N)cc2)nc(-c2ccccc2)n1	17%	-3%	5%
C/C(=N\NC(=O)Cn1c(-c2ccccn2)nc2ccccc21)c1cccc(O)c1	-1%	1%	15%
O=S(=O)(c1ccc(F)cc1)N1CCCC(c2nc(-c3ccc(F)cc3)no2)C1 (stereo not drawn)	-29%	2%	-2%
CC[C@@]1(C(=O)OC)N[C@H](CN(C)C(=O)Nc2ccc(C)cc2)[C@@H]2C(=O)N(C)C(=O)[C@@H]21	-11%	-1%	4%
Cc1ccc(NC(=O)NC(=O)CN2CCC(C(N)=O)CC2)c(C)c1	44%[activator]	-4%	-10%
O=C(Cn1ccc(NC(=O)OCc2ccccc2)nc1=O)NCc1ccc2[nH]ccc2c1	-23%	6%	-3%
C=CCN(CC=C)C(=S)Nc1ccc2nsnc2c1	17%	-3%	5%
O=C(COC(=O)c1ccc([N+](=O)[O-])o1)Nc1ccc(Br)cc1F	0%	-25%	?
Cc1ccc(C(=O)OCC(=O)NC2CCCCC2)cc1S(=O)(=O)N1CCCCC1	4%	3%	17%
CCCc1cc(=O)[nH]c(SCC(=O)c2c(N)n(C3CC3)c(=O)[nH]c2=O)n1	?	-2%	-1%
CC1(c2ccc3c(c2)OCCO3)NC(=O)N(CC(=O)c2ccc[nH]2)C1=O (stereo not drawn)	-5%	1%	2%
Cc1nc(COc2ccc(C(=O)NCc3ccccc3CN3CCCCC3)cc2)cs1	-25%	2%	-7%
CCN(CC)C(=O)C1=C(C)NC(=S)NC1c1cccs1 (stereo not drawn)	-4%	0%	3%
O=C(COc1cccc2cccnc12)Nc1cccc(S(=O)(=O)N2CCCC2)c1	?	-2%	-13%
Fc1cccc(-c2c(-c3ccccc3)ncc3cc(F)ccc23)c1	-23%	1%	2%
C/C(=N\NC(=O)c1cc(-c2ccncc2)nc2ccccc12)c1ccc(N2CCOCC2)cc1	-4%	0%	2%
CC(=O)Nc1ccc(S(=O)(=O)NCCC(=O)N2CCN(c3ccccc3Cl)CC2)cc1	-23%	-1%	15%
CCN1CCN(C(=O)COc2ccc3oc4c(c3c2)CCCC4)CC1	-3%	-6%	-18%
O=C(Nc1ccc(F)cc1)c1ccc2nc[nH]c2c1	63%[activator]	1%	1%
Cn1c(N)c(C(=O)COC(=O)COc2ccc(Cl)cc2)c(=O)n(C)c1=O	1%	3%	5%
CCCC[C@@H]1C=C(C(=O)O)[C@H](c2ccc(Br)cc2)N1S(=O)(=O)c1ccc(C)cc1	15%	2%	5%
COc1ccc([C@@H]2[C@@H]3C(=O)N(C(C)(C)C)C(=O)[C@@H]3[C@]3(Cc4ccccc4)C(=O)N(c4cccc(Br)c4)C(=O)N23)cc1	-10%	-17%	4%
CCCNC(=O)C(Cc1ccccc1C)NC(=O)c1ccc(C#N)cc1 (stereo not drawn)	-4%	2%	-8%
CSCCC(NC(=O)COc1ccccc1)C(=O)N1CC(C)CC(C)C1 (stereo not drawn)	10%	-4%	-2%
O=C(CN1CCN(C(=O)c2ccco2)CC1)Nc1cccc(S(=O)(=O)N2CCCC2)c1	-18%	15%	-10%
Cc1cccc(C)c1NC(=O)CNC(=O)c1ccc(N2CCCC2=O)cc1	-16%	-1%	6%
O=C1CCCN1C(=O)COc1cc(F)ccc1[N+](=O)[O-]	-14%	1%	-8%
O=C1C=C(c2ccc(C(=O)O)cc2)C[C@@H](c2ccc(F)cc2)C1	59%[activator]	-23%	-10%
CC(C)NC(=O)COc1ccc(OCc2ccccc2)cc1	11%	-1%	-11%
CCc1ccccc1NC(=O)CNC(=O)c1n[nH]c(=O)c2ccccc12	25µM*	3%	-7%
Cc1ccccc1S(=O)(=O)N1[C@@H](c2ccc(Cl)cc2)C(C(=O)O)=CC[C@H]1c1ccc(Cl)cc1	0%	?	2%
COc1ccc(C(CNC(=O)c2cc3c(s2)CCC(C)C3)N2CCCC2)cc1 (stereo not drawn)	9%	3%	0%

Random excerpt: two compounds from above
SMILES	2A StopGo	SARS PLP yeast	RE007 growth inh
Cc1cccc(C)c1NC(=O)CNC(=O)c1ccc(N2CCCC2=O)cc1	-16%	-1%	6%
CCCC[C@@H]1C=C(C(=O)O)[C@H](c2ccc(Br)cc2)N1S(=O)(=O)c1ccc(C)cc1	15%	2%	5%

(next part)
SMILES	2A StopGo	SARS PLP yeast	RE007 growth inh
COc1cc2cc(CCOC(=O)c3ccc(C(F)(F)F)cc3)oc(=O)c2cc1OC	-13%	-6%	-5%
COC(=O)[C@H](C(C)C)N(Cc1ccccc1)S(=O)(=O)CCN1CCCC1	0%	7%	-18%
C/C(=N\NC(=S)NCc1ccccc1)c1ccc2ccccc2c1OC(F)F	4%	1%	-2%
CCCn1nc(C(=O)NC2CCCC2)c2ccccc2c1=O	3%	-1%	-13%
CCC(CO)Oc1cc(NCc2cc(C)cc(C)c2)c2ncn(C(C)C)c2c1 (stereo not drawn)	-2%	7%	-9%
O=C(NOCc1ccccc1)c1cccc([N+](=O)[O-])c1	35%[activator]	-1%	-1%
C=C1CC[C@@]23CC[C@]4(C)[C@@](OC2=O)([C@@H]3C1)[C@H]1O[C@H]1C1[C@@]2(C)CC[C@H](O)C(C)(C)C2CC[C@]14C (stereo partly drawn)	?	7%	1%
O=C(CS(=O)(=O)c1ccccc1)Nc1nc(-c2ccc(F)cc2)cs1	?	-3%	3%
CCOC(=O)c1c(CCl)nc2ccccc2c1C	?	1%	-9%
O=C(NNC(=O)C1CCC1)c1cccc(Cl)c1	4%	0%	2%
O=C(Nc1ccc2c(c1)OCO2)Nc1ccccn1	76%[activator]	0%	-9%
CC(Sc1nc(N)cc(N)n1)C(=O)NCC1CCCO1 (stereo not drawn)	0%	-3%	3%

An excerpt from above in order of SMILES length, rising:
SMILES	2A StopGo	SARS PLP yeast	RE007 growth inh
CCOC(=O)c1c(CCl)nc2ccccc2c1C	?	1%	-9%
O=C(Nc1ccc2c(c1)OCO2)Nc1ccccn1	76%[activator]	0%	-9%
CC(Sc1nc(N)cc(N)n1)C(=O)NCC1CCCO1 (stereo not drawn)	0%	-3%	3%
CCCn1nc(C(=O)NC2CCCC2)c2ccccc2c1=O	3%	-1%	-13%
O=C(NOCc1ccccc1)c1cccc([N+](=O)[O-])c1	35%[activator]	-1%	-1%
C/C(=N\NC(=S)NCc1ccccc1)c1ccc2ccccc2c1OC(F)F	4%	1%	-2%
O=C(CS(=O)(=O)c1ccccc1)Nc1nc(-c2ccc(F)cc2)cs1	?	-3%	3%
CCC(CO)Oc1cc(NCc2cc(C)cc(C)c2)c2ncn(C(C)C)c2c1 (stereo not drawn)	-2%	7%	-9%
COc1ccc(C(CNC(=O)c2cc3c(s2)CCC(C)C3)N2CCCC2)cc1 (stereo not drawn)	9%	3%	0%
COC(=O)[C@H](C(C)C)N(Cc1ccccc1)S(=O)(=O)CCN1CCCC1	0%	7%	-18%
COc1cc2cc(CCOC(=O)c3ccc(C(F)(F)F)cc3)oc(=O)c2cc1OC	-13%	-6%	-5%
Cc1ccccc1S(=O)(=O)N1[C@@H](c2ccc(Cl)cc2)C(C(=O)O)=CC[C@H]1c1ccc(Cl)cc1	0%	?	2%
C=C1CC[C@@]23CC[C@]4(C)[C@@](OC2=O)([C@@H]3C1)[C@H]1O[C@H]1C1[C@@]2(C)CC[C@H](O)C(C)(C)C2CC[C@]14C (stereo partly drawn)	?	7%	1%

Later entries:
SMILES	2A StopGo	SARS PLP yeast	RE007 growth inh
CCOc1ccc(S(=O)(=O)Nc2ccn(C)n2)cc1	0%	-8%	2%
O=C(COC(=O)c1ccc(F)cc1)NCc1ccc(F)cc1	-15%	3%	-14%
C[C@@]12C(=O)N(c3ccccc3)C(=O)N1[C@@H]1c3ccccc3OC[C@@H]1[C@H]2c1ccccc1	?	2%	-6%
CCOc1ccc(S(=O)(=O)NCCC(=O)NCC(c2ccc(OC)cc2)N2CCCC2)cc1 (stereo not drawn)	2%	-2%	0%
C=C[C@@H]1c2cc(C)ccc2N(S(=O)(=O)c2ccc(C)cc2)[C@H](c2ccccc2)C1(C#N)C#N	-22%	-3%	7%
CC(C)(C)OC(=O)C[C@H]1C/C=C\C[C@@H](CC(=O)NCCO)C(=O)NCCOC1=O	0%	-13%	-19%
CC(C)(C)OC(=O)C[C@H]1C/C=C\C[C@@H](CC(=O)NCCO)C(=O)NC[C@@H](c2ccccc2)OC1=O	-17%	7%	-1%
COc1ccc(Cl)cc1NC(=S)NCc1cccnc1	54%[activator]	0%	-9%
COC(=O)C1=C(c2ccc(F)cc2F)C[C@@H]2CC[C@H]1N2C(=O)NC1Cc2ccccc2C1	-12%	3%	3%
CC[N+]1=C(C)C(C)(C)c2cc(C)ccc21	?	-6%	4%
C#CCOCCOCCOCCNc1nc(N2CCN(C(=O)[C@H](CCCCN)n3cc(CC(C)O)nn3)CC2)nc(N2CCN(C(=O)[C@H](CCCCN)n3cc(CC(C)O)nn3)CC2)n1 (stereo partly drawn)	-17%	1%	0%
COc1cccc(-c2sc3ccccc3c2-c2ccc(OCCN3CCOCC3)cc2)c1	-4%	-5%	-18%
CCOC(=O)Cc1csc(SCC(=O)Nc2oc(C)c3c(C)n[nH]c(=O)c23)n1	-19%	6%	2%
O=C(NCCc1ccccc1)c1nccc2ccccc12	57%[activator]	-15%	-18%
COc1cc(OC)nc(Oc2cc(/C=N/O)ccc2OC)n1	0%	0%	4%
Cc1ccc(S(=O)(=O)N2[C@@H](c3ccc(Cl)cc3)C(C(=O)O)=C[C@H]2CC2CCCC2)cc1	0%	-6%	4%
Cc1cc(C(=O)COC(=O)c2n[nH]c(=O)c3ccccc23)c(C)n1C	22%	2%	1%
COc1ccccc1/C(C)=N/Oc1cc(N)cc([N+](=O)[O-])c1	18%	14%	-12%
CCCCc1ccc(S(N)(=O)=O)cc1	28%	-2%	1%
Cc1ccc(S(=O)(=O)N2C[C@@H]3[C@H]4CC[C@H](C4)[C@@H]3[C@@H](C)[C@@H]2C2CCCCC2=O)cc1 (stereo partly drawn)	-17%	-52%	12%
CCN(CC)C(=O)c1[nH]cnc1C(=O)Nc1ccon1	-7%	-15%	-9%
CC(=O)N/C(=C/c1cccnc1)C(=O)Nc1ccc(Cl)cc1	2%	-1%	5%
Cc1noc(C)c1C(=O)Nc1ccc(S(=O)(=O)N2CCC(C)CC2)cc1	-34%	5%	3%
CCN(C(=O)COC(=O)/C=C/c1cccc(Cl)c1)c1c(N)n(Cc2ccccc2)c(=O)[nH]c1=O	-24%	-4%	10%
Oc1ccc(C[C@@H]2CNCCN2CCCCC2CCCCC2)cc1	0%	1%	-10%
CCCS(=O)(=O)c1nc(S(=O)(=O)c2ccc(C)cc2)c(NCc2ccccn2)s1	44%[activator]	-4%	3%
C[C@@H]1C(=O)O[C@H](C)[C@H]1C[C@@H](O)[C@](C)(O)C1CC[C@@]2(O)C3=CC(=O)[C@@H]4C[C@@H](O)[C@@H](O)C[C@]4(C)C3CC[C@]12C (stereo partly drawn)	1%	2%	23%
Cc1ccc(NC(=O)CSCC(=O)Nc2cccc(S(=O)(=O)N3CCCCCC3)c2)cc1	-30%	3%	3%
O=C(O)CC(CC(=O)O)c1ccsc1	-2%	-3%	-3%
O=C(C[C@H]1C/C=C/CC[C@@H](Cc2ccc(F)cc2)C(=O)OC[C@H](c2ccccc2)NC1=O)NCCO	32%[activator]	-2%	-3%
C[C@@H]1CN([C@H](C)CO)C(=O)Cc2cc(NC(=O)Nc3ccccc3)ccc2O[C@@H]1CN(C)Cc1ccc2c(c1)OCO2	?	0%	-2%
COc1cccc(-c2sc3ccc(OC)cc3c2C#CC2(O)CCCCC2)c1	0%	2%	-5%
COc1ccc(C(=O)N2CCN(c3cccc(Cl)c3)CC2)cc1S(=O)(=O)NC1CC1	51%[activator]	1%[6.58 µM]	2%
COCc1ccc(-c2c(-c3ccc(OC)cc3)oc(=O)c3cc(OC)c(OC)cc23)cc1	22%	4%	1%
CCCCCCSc1cc(-c2nc3ccc(C)cn3c2NCc2ccccc2)ccc1OC	40µM*!	-5%	?
Cc1ccc(C(=O)CCC(=O)OC(C)C(=O)NC2CCCCC2C)cc1 (stereo not drawn)	-17%	-9%	0%
